Screening data from PubChem BioAssay.
Kir21 inh: inhibitors of mouse Kir2.1 inward-rectifier potassium channel. Inward rectifier potassium channel 2 (Mus musculus), P35561. HEK293-Kir2.1, FluxOR thallium flux fluorescence; active compounds read low. B-score at 10 µM. hit rate 0.85% among 310,000. AID 1672, 2009;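 active means fluorescence ratio B-score at or below minus 3 SD of library scores, with starting-brightness B-score within 2 SD, cut at about -4.2 in these data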;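 further: channel flux triggered by added potassium and thallium sulfate stimulus; B-score of peak minus minimum fluorescence over baseline after thallium stimulus; more negative B-score means stronger Kir2.1 block with less thallium influx; some compounds called inactive have numbers as strong as hits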
Target sequence (P35561 whole entry, looked up): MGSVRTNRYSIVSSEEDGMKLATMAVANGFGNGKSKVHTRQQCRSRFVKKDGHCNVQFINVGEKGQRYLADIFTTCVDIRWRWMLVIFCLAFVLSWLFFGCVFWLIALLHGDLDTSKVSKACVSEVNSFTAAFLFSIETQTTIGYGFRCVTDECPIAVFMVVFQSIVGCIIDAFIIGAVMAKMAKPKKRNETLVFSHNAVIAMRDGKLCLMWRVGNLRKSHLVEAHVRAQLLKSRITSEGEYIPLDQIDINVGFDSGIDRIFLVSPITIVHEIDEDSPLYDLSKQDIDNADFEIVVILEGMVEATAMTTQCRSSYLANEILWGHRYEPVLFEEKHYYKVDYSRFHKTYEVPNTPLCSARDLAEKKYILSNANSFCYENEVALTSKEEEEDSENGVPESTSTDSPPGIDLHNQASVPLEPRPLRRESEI
* marks the source's active call; other numbers are inactive results. The list is partial, and most or all hits are left out here.

Sample of the layout (two entries):
SMILES	Kir21 inh
Cc1ccc2oc(C(=O)N3CCN(c4cccc(C)n4)CC3)c(C)c2c1	0.54
O=C(CC1COc2ccccc2O1)NC1CCCCC1 (stereo not given)	-0.15

The whole of this part, previewed entries included:
SMILES	Kir21 inh
Cc1ccc2oc(C(=O)N3CCN(c4cccc(C)n4)CC3)c(C)c2c1	0.54
O=C(CC1COc2ccccc2O1)NC1CCCCC1 (stereo not given)	-0.15
CCOc1ccccc1C(=O)NCC(=O)OCc1c(C)noc1C	1.7
CCCCOc1ccc(S(=O)(=O)N2CCN(c3ccc(N4CCN(CC)CC4)nn3)CC2)cc1	-2.2
Cc1cccc(NC(=O)CCc2ccccc2)c1	0
Cc1ccc2c(C(=O)CN3CCCC3)c(C)[nH]c2c1	-0.12
Cn1c(CNC(=O)CNC(=O)c2cccc(F)c2)cc(=O)n(C)c1=O	-0.66
CC1=NN(C(=O)CCc2ccccc2O)C(O)(C(F)(F)F)C1 (stereo not given)	-0.03
CCSc1ccccc1C(=O)N1CCCC1	1.1
O=C(COc1ncnc2scc(-c3ccc(Cl)cc3)c12)NCc1ccco1	0.26
CC1(C)CC(=O)C2=C(C1)c1c(ccc3ccccc13)NC2c1ccco1 (stereo not given)	-0.88
Cc1cc(=O)oc2c(C)c(OCC(=O)N(C)C)ccc12	0.46
COc1ccc2c(=O)c3c(=O)n(CCc4ccccc4)c(C(C)C)nc3oc2c1	0.96
O=C(Nc1cc(S(=O)(=O)N2CCOCC2)ccc1Oc1ccc(F)cc1)C1=COCCO1	0.06
O=C(CSc1nnc2scc(-c3ccccc3)n12)NCC1CCCO1 (stereo not given)	2
O=C(c1cccs1)N(c1cccc(Cl)c1)C1C=CS(=O)(=O)C1 (stereo not given)	-1.7
Cc1cc(C)c(NC(=S)N(CCN(C)C)C(C)c2cccnc2)c(C)c1 (stereo not given)	-0.93
N#Cc1ccsc1NC(=O)CSc1ncnc2ccccc12	2.1
CC(C)Cc1ccc(CN2CCCC(NC(=O)CCN3CCCO3)C2)cc1 (stereo not given)	0.53
Cc1ccc2cc3c(N)[nH]nc3nc2c1	0.58
Clc1ccc(OCc2nc(-c3ccncc3)no2)c(Cl)c1	-0.77
COc1ccccc1OCC(=O)Nc1ccc(S(=O)(=O)Nc2nccs2)cc1	-1.9
CC(C)NC(=O)NC(=O)COc1ncnc2sccc12	2.9
O=C(O)CCc1ccc(-c2ccccc2)n1CC1CCCO1 (stereo not given)	0.5
COc1ccccc1CNC(=O)c1cccc(NC(=O)c2ccccc2)c1	0.18
O=C(CSc1nc2ccccc2[nH]1)NC1CCCC1	-1.3
CCc1cccc(C)c1NC(=O)CSc1nc(-c2ccccc2F)nc2nc[nH]c12	1.1
Cc1c(N)cc(N)cc1C(=O)O	-1.9
COc1ccc(N2CCN(C(=S)Nc3ccc(OC)cc3OC)CC2)cc1	-0.02
CCOc1cccc(-c2cc(=O)[nH][nH]2)c1	0.04
COc1ccc(Cn2nnnc2CN2CCN(c3ccc(OC)cc3)CC2)cc1	0.02
CN(C)S(=O)(=O)c1ccc(NC(=O)N2CCN(c3cccc(C(F)(F)F)c3)CC2)cc1	-0.02
COC(=O)c1ccc(NC(=O)Cn2nnc(-c3cccs3)n2)cc1	2
O=C(NCc1ccc(F)cc1)c1ccc(Cl)c(NC2=NC3CS(=O)(=O)CC3S2)c1 (stereo not given)	0.03
O=C(NCCN1CCN(c2ccccc2)CC1)C1CCCN(S(=O)(=O)c2cnc[nH]2)C1 (stereo not given)	-0.04
COc1ccc(OC)c(/C=N/n2c(COc3ccccc3)n[nH]c2=S)c1	0.02
C=CCn1c(SCC(=O)Nc2ccccc2)nnc1-c1cccc(S(=O)(=O)N2CCOCC2)c1	0.01
CC(C)(C)c1ccc(-c2nc(C=O)c3ccccn23)cc1	-0.41
CC(C)=NOc1nc(N(C)C)nc(N2CCOCC2)n1	-0.81
CCN(C(=O)CSc1cc(C)c2ccccc2n1)C1CCS(=O)(=O)C1 (stereo not given)	-0.05
COc1ccc(N2CCN(C(=O)CCCNC(=O)Cn3cnc4sc(C)c(C)c4c3=O)CC2)cc1	-0.06
CSc1ccccc1C(=O)Nc1nc2ccccc2[nH]1	0
CCC(C)[C@H](NC(=O)OC(C)(C)C)C(=O)NCC1CCC(C(=O)N[C@@H](Cc2ccccc2)C(=O)O)CC1 (stereo not given in full)	0.18
C/C(=N\NC(=O)c1cc2ccccc2cc1O)c1ccc2c(c1)OCO2	0.13
CCc1ccccc1NC(=O)CCCN1C(=O)C2CC=CCC2C1=O (stereo not given)	-0.47
COc1ccccc1C1NC(=O)NC(C)=C1C(C)=O (stereo not given)	0.51
Cc1ccc(C(=O)NCC(=O)Nc2cc(C)ccn2)cc1	0.24
COc1ccccc1CNC(=O)CCCc1cn(C)c2ccccc12	-0.61
Cc1ccc(-c2nc(-c3ccccn3)sc2CC(=O)O)cc1	-2.7
O=[N+]([O-])c1nn(-c2ccc(Cl)cc2)n(O)c1=NCc1ccncc1	0.67
COc1cccc(CNC(=O)CCCCCNC(=O)N2CCn3c2nc2ccccc23)c1	0.21
COC(=O)COc1cccc(NC(=O)c2ccc(C)cc2)c1	-2.1
O=C(Nc1c(-c2ccc(F)cc2)nc2ccccn12)c1ccc(F)cc1	0.27
O=C(CSc1nc(-c2ccccc2)c(-c2ccccc2)o1)NCCCO	1.2
C=CCN=C(NC#N)SCCc1ccccc1	-1.9
COc1cccc(CN(C)C(=O)c2cc(-c3cccs3)nc3ccccc23)c1	0.37
O=c1[nH]c2ccc(NC(=S)Nc3ccc(Cl)cc3Cl)cc2[nH]1	-0.53
COc1ccccc1C(=O)COC(=O)CNS(=O)(=O)c1ccc(C)cc1	-0.22
CC1(C)CC(=O)C(C2C3=C(CC(C)(C)CC3=O)Oc3ccccc32)C(=O)C1 (stereo not given)	0.76
C(=C\c1ccccc1)/CNCC1CCCO1 (stereo not given)	-1.8

Following part
SMILES	Kir21 inh
COC(=O)Cc1n[nH]c(=O)c2ccccc12	1.8
CCOc1ccc(CCNC(=O)CCNS(=O)(=O)c2ccc3c(c2)CCN3C(C)=O)cc1OCC	-0.65
O=C(CCCc1c[nH]c2ccccc12)N1CCOCC1	0.62
CCCCCCCOc1ccc(OC(=O)c2cccnc2)cc1	-2.2
NC(=O)C1CN(S(=O)(=O)c2ccc(Cl)cc2F)c2ccccc2O1 (stereo not given)	-2.8
CCC(C)[C@H](NC(=O)[C@@H]1CSC2c3ccccc3C(=O)N21)C(=O)NC1CCCC1 (stereo not given in full)	-0.59
Cc1ccc(-n2ncc(C#N)c2/N=C/N2CCCCCC2)cc1	0.67
CC1=CC(=C(C#N)C#N)C=C(C)N1CCN1CCNCC1	-0.55
CN(C)S(=O)(=O)c1ccc(NC(=O)COC(=O)Cn2[nH]c(=O)c3ccccc3c2=O)cc1	0.91
CCCCc1c(C)c(C#N)c2[nH]c3ccccc3n2c1=O	0.78
CCc1ccc2[nH]c3nc(N/N=C/c4cccc(O)c4)nnc3c2c1	-0.68
CCN(CC(=O)Nc1c(F)cccc1F)C(=O)CN1c2cccc3cccc(c23)S1(=O)=O	0.07
O=C(NNC(=O)C1[C@H]2CCCC[C@@H]12)NC1CCCCC1 (stereo not given in full)	-1
COc1ccccc1NC(=O)N1CCCC1C(=O)Nc1ccc(NC(C)=O)cc1 (stereo not given)	-0.55
O=C(CSc1nnc(-c2n[nH]c3ccccc23)n1-c1ccccc1)Nc1ccccc1Cl	-1.7
Cc1c(Cl)cccc1NC(=S)Nn1cnnc1	-0.09
Cc1ccc(C(=O)N2CCC(C)CC2)cc1S(=O)(=O)N1CCCCC1	0.12
O=C(COC(=O)c1ccc(S(=O)(=O)N2CCCC2)cc1)Nc1ccc(N2CCOCC2)cc1	-0.02
CCOc1ccccc1Nc1cc(C)c2cccc(C)c2n1	-0.23
C=CCN1C2CCCC1CC(NC(=S)Nc1cccc(OC)c1)C2 (stereo not given)	-1.6
COc1ccc(CCn2c(N3CCN(C)CC3)nc3c2c(=O)[nH]c(=O)n3C)cc1	-0.29
CC(C)OC(=O)CSc1nc(-c2ccc(F)cc2)cc(C(F)(F)F)n1	1
COc1cc(/C=C2/SC(=Nc3ccc(O)cc3)NC2=O)cc(OC)c1O	0.82
O=C(COC(=O)c1cc(-c2cccc(Br)c2)nc2ccccc12)NCC1CCCO1 (stereo not given)	-1.1
Cc1cccc(C(=O)NCC(=O)NCCCSc2ccccc2)c1	0.53
CN1CCC(NC(=S)Nc2cccc([N+](=O)[O-])c2)CC1	1.5
CCCCOC(=O)c1ccc(NC(=O)c2cnccn2)cc1	0.6
CC(=O)Nc1ccc2nc(NC(=O)CS(=O)(=O)c3ccccc3)sc2c1	-2
Cc1cccn2c(=O)c3cc(C#N)c(=NC(=O)c4cccnc4)n(CC4CCCO4)c3nc12 (stereo not given)	0.73
Cc1nc(NC(=O)c2cc3ccccc3o2)sc1C	1.6

At a glance, part of the list above.
SMILES	Kir21 inh
CC(=O)Nc1ccc2nc(NC(=O)CS(=O)(=O)c3ccccc3)sc2c1	-2
Cc1cccn2c(=O)c3cc(C#N)c(=NC(=O)c4cccnc4)n(CC4CCCO4)c3nc12 (stereo not given)	0.73
Cc1nc(NC(=O)c2cc3ccccc3o2)sc1C	1.6

Going on with the list:
SMILES	Kir21 inh
O=C(NCCN1C(=O)C2C3C=CC(C3)C2C1=O)Nc1ccc(Br)cc1 (stereo not given)	1.1
O=C(C1CCN(c2nnnn2-c2ccccc2)CC1)N1CCN(c2ccccc2)CC1	2.8
N#Cc1nc(-c2ccccc2F)oc1NCc1ccccc1	0.19
CCn1nc(C)cc1-c1n[nH]c(=S)n1N	2
COc1ccc(N(CC(=O)NCCC2=CCCCC2)S(C)(=O)=O)cc1	0.82
CC(C)(C)C(=O)CSc1nc(N)cc(=O)[nH]1	0.83
CCc1nn(C(CC)C(=O)NCc2cccc(OC)c2)c(=O)c2cc3occc3n12 (stereo not given)	0.64
COCCSc1nnc(NC(=O)C(C)(C)C)s1	-0.62
CC(=O)N1CCN(CC(=O)Nc2c(Cl)cccc2Cl)CC1	1.2
COc1ccc(C(=O)N(c2ccccc2)C2C=CS(=O)(=O)C2)cc1 (stereo not given)	-0.56
c1ccc(-c2cc(CSc3nc4ccccc4[nH]3)on2)cc1	-0.39
COc1ccc(NC(=O)NNC(=O)c2cc3ccccc3cc2O)cc1	0.68
CCCCOP(=O)(c1ccc(N(C)C)cc1)C(O)c1ccc(C(C)C)cc1 (stereo not given)	-0.29
Cc1cc2ccccc2n1CCC(=O)O	0.22
CCCCNS(=O)(=O)c1ccc(NC(=O)c2cccs2)cc1	-0.41

7 compounds already listed, ordered by length of the SMILES, highest first:
SMILES	Kir21 inh
CCc1nn(C(CC)C(=O)NCc2cccc(OC)c2)c(=O)c2cc3occc3n12 (stereo not given)	0.64
CCCCOP(=O)(c1ccc(N(C)C)cc1)C(O)c1ccc(C(C)C)cc1 (stereo not given)	-0.29
COc1ccc(C(=O)N(c2ccccc2)C2C=CS(=O)(=O)C2)cc1 (stereo not given)	-0.56
COc1ccc(NC(=O)NNC(=O)c2cc3ccccc3cc2O)cc1	0.68
c1ccc(-c2cc(CSc3nc4ccccc4[nH]3)on2)cc1	-0.39
CCCCNS(=O)(=O)c1ccc(NC(=O)c2cccs2)cc1	-0.41
N#Cc1nc(-c2ccccc2F)oc1NCc1ccccc1	0.19

Continuation:
SMILES	Kir21 inh
Cc1cccc(N(C)C(=O)CN(C)S(=O)(=O)c2ccc3c(c2)c(=O)n(C)c(=O)n3C)c1	-4.1
COc1ccc(NC(=O)CN2C(=O)CC(C)S(=O)(=O)c3ccccc32)cc1 (stereo not given)	1.5
Cc1nc2oc3ccc(Cl)cc3c(=O)c2cc1C(=O)O	1.5
c1ccc(-c2ccnc3nc(-n4cccc4)nn23)cc1	1.3
Cc1onc(-c2ccccc2Cl)c1C(=O)N1CC(C)OC(C)C1 (stereo not given)	0.29
COCCN(Cc1cc2cc(C)ccc2n2nnnc12)C(=S)Nc1ccccc1C	0.53
CCC(CC)C(=O)N1CCN(c2ccccc2)CC1	0.06
Cc1[nH]c2ccccc2c1CCC(N)=O	2.1
CC(=O)C1=C(C)NC(C)=C(C(C)=O)C1c1cn(-c2ccccc2)nc1-c1cccs1	-0.85
Cc1cccc2cc(C(c3nnnn3Cc3ccccc3)N3CCCc4ccccc43)c(=O)[nH]c12 (stereo not given)	0.56
O=C(O)CC1SC(=Nc2ccc(O)cc2)NC1=O (stereo not given)	-0.28
Cc1cc(C)n2cc(-c3ccc(Cl)cc3)c(C(=O)O)c2n1	0.01
O=C1CCC(C(=O)Nc2cccc(Oc3ccccc3)c2)=NN1	1.3
Cc1cc(/C(=N/O)C(C)(C)NO)ccc1Cl	-0.6
CN1C(=O)C(O)(CC(=O)c2cccnc2)c2ccccc21 (stereo not given)	0.76
CCSC(C)CC1C/C(=N/O)c2c(C)noc2C1 (stereo not given)	0.09
O=C(O)c1cc(C(F)(F)F)nc2c(C(F)(F)F)cccc12	2
O=S1(=O)CC(O)C(NCc2cccnc2)C1 (stereo not given)	0.86
C=C(C)CN(CC)C(=O)Cn1cnc2c(oc3ccccc32)c1=O	0.26
O=C(CSc1nnc(-c2ccccc2)n1-c1ccc(Cl)cc1)N/N=C/c1ccco1	-0.34
CN(C)CC(C)(C)CNC(=O)c1cc(Br)cc(Br)c1O	-0.91
CC(=O)NS(=O)(=O)c1ccc(NC(=O)CCc2ccccc2)cc1	-0.21
COc1ccc(C(CCN(Cc2ccc(OC)c(OC)c2)C(C)=O)c2ccccc2)cc1 (stereo not given)	-0.18
Cc1nn2c(N)c(-c3ccccc3)cnc2c1-c1ccc(Cl)cc1	-0.38
CCN1CCN(S(=O)(=O)c2ccc3[nH]c(=O)oc3c2)CC1	1

Two compounds drawn at random from those above, as already listed:
SMILES	Kir21 inh
CN(C)CC(C)(C)CNC(=O)c1cc(Br)cc(Br)c1O	-0.91
CCSC(C)CC1C/C(=N/O)c2c(C)noc2C1 (stereo not given)	0.09
